Screens from PubChem.
CapD inh: Bacillus anthracis CapD inhibitors, primary screen, biochemical, fluorescence intensity | purified CapD enzyme, fluorescence intensity read-out; stronger effect = lower value; some hits fall short of the stated cut | CapD gamma-glutamyltranspeptidase (Bacillus anthracis Ames Ancestor) | hit rate 0.23% among 140,000 | AID 492967, 2010 | z-score (test concentration not listed);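 active means z-score under -4 in either of two replicates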;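 further: stock transfer was 100 nL into about 40 µL; score is relative to mean and spread of the plate; one replicate is shown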
AID504770: growth inhibition of E. coli YBA685, primary screen, V. cholerae RctB inhibitors; z-score (concentration not given with the values); E. coli YBA685 rctB-dependent plasmid, OD600 growth, 3 h; stronger effect = lower value; hit rate 0.27% among 130,000; AID 504770, 2011;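 active means z-score under -2 on both plates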;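 further: wells of about 30 µL received 100 nL stock; score is relative to mean and SD of the test wells; the first replicate is given; strong numbers were not always called active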
Numbers without * were called inactive; . = no result given.

SMILES	CapD inh	AID504770
Cn1c(Cc2cccs2)nnc1SCC(=O)c1ccc2c(c1)OCO2	.	-0.15
CCCS(=O)(=O)c1cc2ccccc2oc1=O	15	.
CC(=O)OC12CCC(=O)C=C1CCC1C3CCC(=O)C3(C)CCC12 (configuration not stated)	0.065	0.05
O=C(COc1ccc2c3c(c(=O)oc2c1)CCC3)Nc1ccccc1N1CCOCC1	.	-0.5
COCc1cc(C)nc(N2CCOCC2)c1C#N	-0.08	-0.95
O=C1C2C3C=CC(CC3)C2C(=O)N1c1cccc(Br)c1 (configuration not stated)	-0.41	.
O=C(/C=C/c1ccc(F)cc1)N1CCN(C/C=C/c2ccccc2)CC1	.	0.85
CCOC(=O)c1c(C)n(C)c2c1cc(OC(=O)c1cccc(Cl)c1)c1ccccc12	0.04	.
O=C(c1ccc(S(=O)(=O)NCC2CCCO2)cc1)N1CCc2ccccc21 (configuration not stated)	0.42	0.7
COc1cc(/C=C(\NC(C)=O)C(=O)O)ccc1OCc1ccccc1	-0.83	0.75
COc1cc(C2C3=C(CC(C)(C)CC3=O)NC3=C2C(=O)CC(C)(C)C3)cc(I)c1O	-0.86	.
COc1cc(OC)nc(-c2ccc(NC(=O)Nc3ccc(F)cc3F)cc2)n1	1.3	.
CN(C)S(=O)(=O)c1ccc(C(=O)OCc2nc3ccccc3c(=O)[nH]2)cc1	.	-0.75
CC1CC(C)CN(C(=O)Cn2c(=O)oc3ccccc32)C1 (configuration not stated)	.	-0.05
CCc1ccc(CN2CCN(C(=O)c3ccccc3)CC2)cc1	-0.015	-0.55
CCC(C)NC(=O)c1sc2ncnc(N3CCN(c4ccc(OC)cc4)CC3)c2c1C (configuration not stated)	-0.035	.
Cc1cc(OC(=O)c2cccs2)c2c3c(c(=O)oc2c1)CCC3	-0.41	-0.35
CC(Oc1ccc(-c2ccc(C#N)cc2)cc1)C(N)=O (configuration not stated)	.	-0.45
Cn1c(CO)nc2ccccc21	0.035	-0.45
CCNc1nc(NCC)nc(Nn2cnnc2)n1	0.28	0.5
O=C(Nc1ccc(F)cc1F)c1csc(-c2ccc(Cl)cc2)n1	-0.13	.
CCN1CCCC1CNC(=O)Nc1cn(CC(C)C)c(=O)c2ccccc12 (configuration not stated)	10	-0.3
N#CC1=C(N)NC(SCc2ccccc2)=C(C#N)C12CCCCC2	-0.52	-0.65
O=C(NC1c2ccccc2Oc2ccccc21)c1cccnc1	0.41	-0.2
CCOCCOC(=O)C1=C(C)NC2=C(C(=O)CC(c3ccccc3)C2)C1c1cccc(Br)c1 (configuration not stated)	8.8	.
SMILES	CapD inh	AID504770
COc1ccc(CNC(=O)C(C)OC(=O)c2ccccc2)cc1 (configuration not stated)	.	-0.7
CC(NC(=O)C1CCC1)c1ccc2c(c1)OCO2 (configuration not stated)	-0.18	-1.1
CCOC(=O)C1=CN(Cc2ccc(OC)cc2)C=C(C(=O)OCC)C1c1cc(Br)c(OCC)c(OC)c1	22	.
CCOC(=O)c1cc2c(nc1C)-c1ccc([N+](=O)[O-])cc1C2=O	-0.33	.
O=S(Cc1c(Cl)cccc1Cl)c1ccc(C(F)(F)F)cn1 (configuration not stated)	-2	1
Cc1c(-c2ccccc2)c(CN2CCN(C)CC2)n2ccccc12	0.6	0.45
COc1ccc(CNC(=S)NN)cc1	-0.14	-0.65
COc1cc(C2C(C(=O)OC(C)C)=C(C)NC3=C2C(=O)CC(c2ccc(Cl)cc2)C3)ccc1OC(C)=O (configuration not stated)	79	.
CC(CC(=O)NCC1CCCO1)c1ccccc1 (configuration not stated)	0.34	-0.25
COc1ccc(NC(=O)Nc2ncn(Cc3cccc(C(F)(F)F)c3)n2)cc1OC	-0.74	-0.9
Cc1ccc(C)c(NS(=O)(=O)c2ccccc2)c1	0.53	-0.1
COc1ccccc1NC(=O)C(NS(=O)(=O)c1cccc2nsnc12)c1ccccc1 (configuration not stated)	-0.36	0.2
O=C(c1cc2c(=O)n3ccccc3nc2s1)N1CCCC1	.	-1.5
COc1ccccc1CCOC(=O)NCCNc1ccccc1	-1	.
CCSC(SCC)=C(C#N)C(=O)Nc1ccccc1	-0.42	-0.5
CSc1sc(C(=O)NNC(=O)OCC2CCCN2Cc2ccccc2)cc1-c1nc(C)cs1 (configuration not stated)	2.9	.
Cc1nnc(SCC(=O)N(C)C2CCS(=O)(=O)C2)n1Cc1ccccc1 (configuration not stated)	.	-1
NC(=O)c1ccc[n+]([C@@H]2O[C@H](COP(=O)([O-])OP(=O)(O)OC[C@H]3O[C@@H](n4cnc5c(N)ncnc54)[C@H](O)[C@@H]3O)[C@@H](O)[C@H]2O)c1	-0.32	.
Cc1cc(N2C(=O)C=CC2=O)no1	-0.97	-1.2
CCN1CCN(C2=NC(=O)/C(=C\c3ccc(OC)cc3)S2)CC1	-0.86	.
C=CCn1c(SCC(=O)NCCc2ccccc2)nc2cc(C(=O)NCc3ccco3)ccc2c1=O	3.5	.
CSc1nn2c(=O)c(-c3ccccc3)nnc2s1	0.76	-2.2
O=c1c2c(nc(SCCO)n1C1CCCC1)-c1ccccc1CC21CCCC1	-1.7	-0.4
O=C(NCC1COC2(CCCCC2)O1)Nc1ccccc1 (configuration not stated)	.	0.05
COc1cc(/C=C2\SC(=S)N(c3ccc([N+](=O)[O-])cc3)C2=O)cc(Br)c1O	-0.35	.
SMILES	CapD inh	AID504770
O=C(O)C(Cc1ccccc1)N1C(=O)C2C3C=CC(C3)C2C1=O (configuration not stated)	0.51	-0.75
C[C@H]1NC(=O)NC1=O	0.08	.
S=C1NC(=S)NC(c2ccc(Br)cc2)N1	0.04	-0.6
COc1ccccc1C(NC(=O)c1cc(OC)c(OC)c(OC)c1)c1cc(Cl)c2cccnc2c1O (configuration not stated)	0.23	.
CON(C)S(=O)(=O)c1cccc(C(=O)N2CCN(S(=O)(=O)c3ccccc3Br)CC2)c1	.	1.1
Cc1cc(NC(=O)Cc2c(C(=O)O)nnn2-c2ccc(Br)cc2)no1	.	-0.05
O=C(NC1CCCCC1)N1CCN(c2ccccn2)CC1	.	-0.5
COc1ccc(N2C(=O)CC(SCC(=O)O)C2=O)cc1 (configuration not stated)	-1.2	-0.65
CCn1cc(C(=O)N(C)c2ccc(OC)cc2)c2cc(OC)c(OC)cc2c1=O	-0.51	-0.15
O=C(c1ccc(C(F)(F)F)cc1)N1CCc2cc(F)ccc21	0.015	.
COc1cc(C2NC(=O)NC(C)=C2C(=O)OC2CCCCCCC2)cc(OC)c1OC (configuration not stated)	0.39	.
O=C1C(Nc2ccccc2)=CC(c2ccccc2F)N1c1ccccc1 (configuration not stated)	-0.42	.
O=C(Nc1cccnc1)c1cccc(S(=O)(=O)N2CCc3ccccc32)c1	.	-0.7
Cc1ccc(C2=CSc3nnc(-c4ccccc4Br)n3N2)cc1	0.16	0.15
CC(C)Oc1ccc(CN(Cc2ccco2)C(=O)NC2CCN(Cc3ccccc3Sc3ccc(Cl)cc3)C2)cc1 (configuration not stated)	-0.23	.
CCOC(=O)CC(=O)c1ccn(C)n1	0.015	-0.8
CC(C)(C)c1ccc(-c2nc(CSc3ccccn3)no2)s1	0.59	0.05
Nc1cc(=O)n(-c2ccccc2)[nH]1	-0.17	-0.4
Cc1[nH]c2ccc(C(=O)NCCCN3CCN(c4ccccc4F)CC3)cc2c1C	1.1	-0.2
CC1CCC(NC(=O)CCc2nc3sc4c(c3c(=O)[nH]2)CCCC4)CC1 (configuration not stated)	-0.18	1.6
CCS(=O)(=O)c1ncc(Cl)c(C(=O)Nc2ccc(Cl)cc2)n1	-0.7	-0.85
Cc1nc(C)n(CC(O)COc2ccc3c4c(c(=O)oc3c2)CCC4)n1 (configuration not stated)	.	-0.6
C=CCn1c(NCc2cn(-c3ccccc3)nc2-c2cccs2)nc2ccccc21	-0.05	1.4
COc1ccc(C2=Nc3ccccc3N=C(c3cc(C)ccc3O)C2)cc1	0.01	.
O=C(CN(Cc1ccco1)C(=O)Cc1c(F)cccc1Cl)Nc1ccccc1Br	.	0.25
SMILES	CapD inh	AID504770
O=C(O)/C=C/C1=Cc2ccccc2OC1	.	0.4
COc1ccc(S(=O)(=O)N(CC(=O)NCCc2ccc(OC)c(OC)c2)c2ccc(C)cc2)cc1	-0.25	.
CCOC(=O)C1(Nc2nccs2)Sc2ccccc2NC1=O (configuration not stated)	.	0.05
Cc1c(CC(C)C)nc(C#N)c(N)c1-c1ccccc1	25	0.55
CC(C)NC(=O)Cc1c(C(=O)O)[nH]c2ccccc12	0.47	-0.85
COCCOC(=O)c1c(C)oc2c1cc(NS(=O)(=O)c1ccc(Cl)c([N+](=O)[O-])c1)c1ccccc12	0.7	.
COC(=O)C(C)Sc1ncnc2c1c(-c1ccccc1)cn2-c1ccc(OC)cc1 (configuration not stated)	0.46	.
Cc1cccc(N2C(=O)C3ON(c4ccccc4)C(c4ccco4)C3C2=O)c1 (configuration not stated)	-1	1.9
NS(=O)(=O)c1ccc(C(=O)N/N=C/c2ccccc2O)cc1	-1.9	.
CCN(CC(=O)NC1CCS(=O)(=O)C1)Cc1nc2sc3c(c2c(=O)[nH]1)CCC3 (configuration not stated)	.	-0.4
Cc1cc(-c2ccccc2)nc2oc3c(=O)[nH]cnc3c12	17	1.6
CC(C)NC(=O)CC1Oc2ccccc2NC1=O (configuration not stated)	-0.23	-0.75
CN(CCCC12CCC(c3ccccc31)c1ccccc12)S(=O)(=O)c1c(F)cccc1F	0.23	.
CCOC(=O)Cn1c(-c2cccs2)cc2ccccc21	114	0.4
CCOc1ccc(NC(=O)NN2C(C)CCCC2C)cc1 (configuration not stated)	0.075	1.6
OC(Cc1ccccc1)(c1ccccc1)C1CN2CCC1CC2 (configuration not stated)	1	-0.2
CCc1ccccc1NC(=S)N1CCC(N(C)C(C)C)CC1	0.55	0.1
CC(=O)N[C@H]1[C@H](OCc2ccccc2F)O[C@H](COC(C)=O)[C@@H](OC(C)=O)[C@@H]1OC(C)=O	-0.23	.
O=C(Nc1ccccc1)c1ccc(=O)n(Cc2c(Cl)cccc2Cl)c1	0.28	.
N#CC(C#N)=CNc1ccc2oc3ncccc3c(=O)c2c1	0.8	0.6
O=C1c2ccc3c4c(ccc(c24)C(=O)N1c1nccs1)C(=O)N(c1nccs1)C3=O	-0.13	-0.65
OCc1cn(Cn2cc(CO)c(-c3ccccc3)n2)nc1-c1ccccc1	-0.08	-1
COc1cc(C=Nc2c(C)n(C)n(-c3ccccc3)c2=O)ccc1OCC#N	0.18	.
CC(=O)Nc1ccc(NC(=O)CC(CC(=O)O)c2ccccc2)cc1 (configuration not stated)	0.15	0
Nc1ccc(Oc2ccc3nc(-c4ccc(N)cc4)[nH]c3c2)cc1	71	-0.7
SMILES	CapD inh	AID504770
CCCNC(=O)Cn1nc(C(F)(F)F)c(Br)c1C	-0.18	1.8
CN(C)/C=N/c1nc(-c2ccc3ccccc3c2)cs1	.	-0.1
Cc1ccc(C2=Nc3ccccc3N=C(c3ccc(C)cc3O)C2)cc1	-0.88	.
CSCc1ccc(C(=O)NCc2ccccc2)cc1	.	-0.95
CCC1=NN(C(=O)c2ccc(Br)cc2)C(O)(c2ccc(OC)cc2)C1 (configuration not stated)	0.27	.
CCCn1c(SCC2CCCCO2)nc2ccccc21 (configuration not stated)	.	-1.2
Cc1ccc(C)c(NC(=O)C2CC(O)CN2C(=O)OC(C)(C)C)c1 (configuration not stated)	0.76	-0.25
COc1ccccc1CNC(=O)CNC(=O)Cn1ccc2ccccc2c1=O	0.45	1.4
Cc1ccc(C2(O)CN(c3ccccc3C)C3=[N+]2CCCS3)c(C)c1 (configuration not stated)	0.34	.
CCOC(=O)Cn1c(=O)oc2cc(S(=O)(=O)N3c4ccccc4CC3C)ccc21 (configuration not stated)	0.76	0.25
O=C(O)c1cccc(-c2ccc(O)cc2)c1	-0.86	2.5
Cc1cc2nnc(SCC(=O)Nc3ccc(F)cc3)n2c2ccccc12	2.2	.
Cc1ccc(NC(=S)NN(C)C)cc1	0.055	-0.6
O=C(O)COCC(=O)Nc1cc(C(F)(F)F)ccc1N1CCCC1	-1.4	-0.45

Ordered by molecular weight (low to high): part of the list above.
SMILES	CapD inh	AID504770
Cc1ccc(NC(=S)NN(C)C)cc1	0.055	-0.6
CN(C)/C=N/c1nc(-c2ccc3ccccc3c2)cs1	.	-0.1
CCCn1c(SCC2CCCCO2)nc2ccccc21 (configuration not stated)	.	-1.2
Cc1ccc(C2=Nc3ccccc3N=C(c3ccc(C)cc3O)C2)cc1	-0.88	.
O=C(O)COCC(=O)Nc1cc(C(F)(F)F)ccc1N1CCCC1	-1.4	-0.45
COc1ccccc1CNC(=O)CNC(=O)Cn1ccc2ccccc2c1=O	0.45	1.4
CCC1=NN(C(=O)c2ccc(Br)cc2)C(O)(c2ccc(OC)cc2)C1 (configuration not stated)	0.27	.

Grouped by structure: the entries above with a cyano group (7)
SMILES	CapD inh	AID504770
COCc1cc(C)nc(N2CCOCC2)c1C#N	-0.08	-0.95
CC(Oc1ccc(-c2ccc(C#N)cc2)cc1)C(N)=O (configuration not stated)	.	-0.45
N#CC1=C(N)NC(SCc2ccccc2)=C(C#N)C12CCCCC2	-0.52	-0.65
CCSC(SCC)=C(C#N)C(=O)Nc1ccccc1	-0.42	-0.5
Cc1c(CC(C)C)nc(C#N)c(N)c1-c1ccccc1	25	0.55
N#CC(C#N)=CNc1ccc2oc3ncccc3c(=O)c2c1	0.8	0.6
COc1cc(C=Nc2c(C)n(C)n(-c3ccccc3)c2=O)ccc1OCC#N	0.18	.

Compound profiles (already shown):
CCC1=NN(C(=O)c2ccc(Br)cc2)C(O)(c2ccc(OC)cc2)C1 (configuration not stated) as listed: CapD inh: 0.27; AID504770: .
COc1ccccc1NC(=O)C(NS(=O)(=O)c1cccc2nsnc12)c1ccccc1 (configuration not stated) as listed: CapD inh: -0.36; AID504770: 0.2

This is a subset, so the mix of outcomes need not match the whole.
